VDR inhibitor = Inhibitors of the vitamin D receptor (VDR): qHTS; Potency, µM, inactives show max response, negative = inhibition, most hits filed as inhibitors; Vitamin D3 receptor (Homo sapiens), P11473; AID 504847, 2011; 400,000 compounds, 0.93% hits; VDR-SRC2-3 peptide fluorescence polarization, 2 h; active = well fitted inhibition curve with a large enough effect; inconclusive = small, poorly fitted or top-dose-only effect, or another doubt; inactive = no such curve, though single readings can be large or run the other way; note: series mostly up to about 120 µM
Target sequence (P11473 whole entry, looked up): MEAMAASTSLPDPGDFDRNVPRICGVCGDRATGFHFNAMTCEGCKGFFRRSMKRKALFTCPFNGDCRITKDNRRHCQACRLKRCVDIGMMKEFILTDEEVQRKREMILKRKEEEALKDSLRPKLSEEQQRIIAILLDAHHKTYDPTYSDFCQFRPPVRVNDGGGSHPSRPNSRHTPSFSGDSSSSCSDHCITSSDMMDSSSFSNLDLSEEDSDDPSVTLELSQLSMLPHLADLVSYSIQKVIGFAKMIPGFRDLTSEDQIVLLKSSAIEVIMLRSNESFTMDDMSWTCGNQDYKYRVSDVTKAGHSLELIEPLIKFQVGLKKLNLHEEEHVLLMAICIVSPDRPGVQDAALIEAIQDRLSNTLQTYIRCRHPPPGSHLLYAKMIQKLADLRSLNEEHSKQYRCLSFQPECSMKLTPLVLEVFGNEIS
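FP read-out; VDR + SRC2-3 coactivator peptide; 23 nl compound by pintool; 2 h RT incubation; reagents held at 4 deg C, protected from light.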
* = called active by the depositor; ? = inconclusive; & = joins results of further samples. % is set by controls: 0 for no effect and ±100 for the full control effect; potency is the fitted concentration of half-maximal effect.

SMILES	VDR inhibitor
COC(=O)c1ccc(NC(=O)C(=O)N2CCN(C(=S)NCCc3ccccc3)CC2)cc1	-4%
COc1ccc(/C=N/Nc2nc(=O)[nH]nc2C)cc1[N+](=O)[O-]	0%
O=C(CSc1ncn[nH]1)Nc1ccccc1Sc1ccc(Cl)cc1	8%
Nc1nc(Nc2ccccc2Cl)cc(=O)[nH]1	-15%
Cc1ccc(N=Nc2ccc(C)cc2NC(=O)Nc2ccccc2F)cc1	8%
Cc1ccc(-n2nnc(-c3nccn3C)n2)cc1	-15%
CC(C)(C)c1ccc(NC(=O)C(=O)C2C(=O)Nc3ccccc32)cc1 (stereo not given)	14%
O=C(NCc1ccco1)C(c1ccccc1)N(C(=O)Cc1cccs1)c1ccccc1 (stereo not given)	-2%
O=C(O)CC(CC(=O)N1CCOCC1)c1ccccc1 (stereo not given)	4%
C=CC[N+]1(CC#CCOC(c2ccccc2)c2ccccc2)CCOCC1	-6%
Nc1cc(=O)n(Cc2ccccc2)c(=O)n1-c1ccc(Cl)cc1	2%
O=C(CCNC(=O)c1ccc(Cl)cc1)Nc1nc2ccccc2[nH]1	-16%
O=C(COC(=O)CSc1ccc(Cl)cc1)Nc1ccc2[nH]c(=O)[nH]c2c1	7%
CCOC(=O)C1CCN(C(=O)/C(=C/c2ccccc2)NC(=O)c2ccccc2)CC1	1%
CCCCN1C(=O)c2[nH]nc(-c3ccccc3O)c2C1c1ccc(OCc2ccccc2)c(OC)c1 (stereo not given)	5%
COc1ccc(NC(=O)NC(C)c2ccncc2)cc1OC (stereo not given)	16%
c1ccc(-n2c(Cc3cccnc3)nc3cnccc32)cc1	-6%
CN(Cc1ccccc1)C(=O)COC(=O)c1ccccc1Nc1ccccc1	-5%
Cc1cc(C(=O)CCC(=O)N2CCN(c3ccccc3O)CC2)c(C)s1	3%
Cc1cccc(C(=O)Nc2ccc(C(=O)OCc3cc(=O)n4nc(C5CC5)sc4n3)cc2)c1	10%
Cc1cc(NCCCn2ccnc2)n2nc(C)c(-c3ccccc3)c2n1	-5%
NC(=O)C1CCN(C2CC(=O)N(c3ccc(F)c(Cl)c3)C2=O)CC1 (stereo not given)	-4%
Cn1c(SCC(=O)O)nnc1-c1ccc(NC(=O)c2ccc(Cl)c(Cl)c2)cc1	-4%
O=C(Nc1ccc2c(c1)CCC2)c1ccc(F)c(S(=O)(=O)N2CCOCC2)c1	-21%
COc1ccc(-c2nc3sc(CCNC(=O)c4cc(Cl)ccc4OC)c(C)n3n2)cc1	-1%
CC(=O)Oc1ccc2oc(=O)c3c(c2c1)CCCN3C(=O)CN1CCN(c2ncccn2)CC1	4%
Cc1cc2c(cc1S(=O)(=O)CCC(=O)N(C)Cc1ccccc1)OCC(=O)N2	-5%&12%
CCn1cc(S(=O)(=O)Nc2ccccc2C(F)(F)F)cn1	3%
CCOc1ccc2nc3cc(N=Nc4ccc(N)nc4N)ccc3c(N)c2c1	3%
C/C(N)=C(/C#N)C(=O)CSc1nnc(COc2ccccc2Cl)o1	8%&-15%
Cc1cc(N2CCN(C)CC2)nc2ccc(NC(=O)Nc3ccc(Cl)cc3)cc12	-1%
CCc1cc(=O)oc2cc(C)cc(O)c12	-10%
Cc1cccc(C)c1NC(=O)C1c2ccccc2Oc2ccccc21	-15%
Cc1c(C)n(Cc2ccccc2)c2ccc(C(=O)OCCCN(C)C)cc12	1%
CC(=O)c1ccc(N2CCN(CC(O)COC(c3ccccc3)c3ccccc3)CC2)cc1 (stereo not given)	27%
Nc1nnc(SCC(=O)Nc2cccc3ccccc23)s1	6%

Arranged by molar mass (highest first): some entries from above
SMILES	VDR inhibitor
CCCCN1C(=O)c2[nH]nc(-c3ccccc3O)c2C1c1ccc(OCc2ccccc2)c(OC)c1 (stereo not given)	5%
CC(=O)Oc1ccc2oc(=O)c3c(c2c1)CCCN3C(=O)CN1CCN(c2ncccn2)CC1	4%
Cc1cccc(C(=O)Nc2ccc(C(=O)OCc3cc(=O)n4nc(C5CC5)sc4n3)cc2)c1	10%
COc1ccc(-c2nc3sc(CCNC(=O)c4cc(Cl)ccc4OC)c(C)n3n2)cc1	-1%
Cn1c(SCC(=O)O)nnc1-c1ccc(NC(=O)c2ccc(Cl)c(Cl)c2)cc1	-4%
O=C(NCc1ccco1)C(c1ccccc1)N(C(=O)Cc1cccs1)c1ccccc1 (stereo not given)	-2%
Cc1cc(N2CCN(C)CC2)nc2ccc(NC(=O)Nc3ccc(Cl)cc3)cc12	-1%
CCOC(=O)C1CCN(C(=O)/C(=C/c2ccccc2)NC(=O)c2ccccc2)CC1	1%
O=C(Nc1ccc2c(c1)CCC2)c1ccc(F)c(S(=O)(=O)N2CCOCC2)c1	-21%
Cc1cc2c(cc1S(=O)(=O)CCC(=O)N(C)Cc1ccccc1)OCC(=O)N2	-5%&12%
O=C(COC(=O)CSc1ccc(Cl)cc1)Nc1ccc2[nH]c(=O)[nH]c2c1	7%
CN(Cc1ccccc1)C(=O)COC(=O)c1ccccc1Nc1ccccc1	-5%
CCOc1ccc2nc3cc(N=Nc4ccc(N)nc4N)ccc3c(N)c2c1	3%
Cc1cc(C(=O)CCC(=O)N2CCN(c3ccccc3O)CC2)c(C)s1	3%
C/C(N)=C(/C#N)C(=O)CSc1nnc(COc2ccccc2Cl)o1	8%&-15%
Cc1c(C)n(Cc2ccccc2)c2ccc(C(=O)OCCCN(C)C)cc12	1%
NC(=O)C1CCN(C2CC(=O)N(c3ccc(F)c(Cl)c3)C2=O)CC1 (stereo not given)	-4%
Cc1cc(NCCCn2ccnc2)n2nc(C)c(-c3ccccc3)c2n1	-5%
O=C(CCNC(=O)c1ccc(Cl)cc1)Nc1nc2ccccc2[nH]1	-16%
CC(C)(C)c1ccc(NC(=O)C(=O)C2C(=O)Nc3ccccc32)cc1 (stereo not given)	14%
Cc1cccc(C)c1NC(=O)C1c2ccccc2Oc2ccccc21	-15%
Nc1cc(=O)n(Cc2ccccc2)c(=O)n1-c1ccc(Cl)cc1	2%
CCn1cc(S(=O)(=O)Nc2ccccc2C(F)(F)F)cn1	3%
Nc1nnc(SCC(=O)Nc2cccc3ccccc23)s1	6%
COc1ccc(NC(=O)NC(C)c2ccncc2)cc1OC (stereo not given)	16%
c1ccc(-n2c(Cc3cccnc3)nc3cnccc32)cc1	-6%
O=C(O)CC(CC(=O)N1CCOCC1)c1ccccc1 (stereo not given)	4%
Cc1ccc(-n2nnc(-c3nccn3C)n2)cc1	-15%

(more compounds)
SMILES	VDR inhibitor
Cn1nc(C(F)(F)F)c(-c2ccc(Br)cc2)c1NC(=O)CSCC(=O)O	18%
CN(C(=O)c1ccc(NC(=O)Cc2ccc(NC(=O)C3CCCN(C(=O)C4CCCCC4)C3)cc2)cc1)C1CCCC1 (stereo not given)	-10%
CCOc1ccc(C(=O)Nc2cc(-c3nc4cc(OC)ccc4o3)ccc2C)cc1[N+](=O)[O-]	7%
CCOc1ccccc1NC(=O)c1ccc(S(=O)(=O)N2CCCCC2)cc1	-4%
N#Cc1c(-c2cccs2)cc(-c2ccccn2)nc1N	16%
Cc1ccccc1Nc1nc(N)nc(CSCC(=O)Nc2cccc(Br)c2)n1	?
O=C(c1cc(COc2ccc(F)cc2Cl)on1)N1CCCC(c2ccccc2)C1 (stereo not given)	-8%
CCCOP(=O)(OCCC)c1nc(-c2ccccc2)oc1NCc1ccccc1	-24%
CC(C)CN(C(=O)c1ccc(S(=O)(=O)N2CCCC2)cc1)C1CCS(=O)(=O)C1 (stereo not given)	-3%
Cc1cc(Oc2ccccc2)nc(SCC(=O)Nc2ccccc2)n1	-9%
CSC(=NC#N)N1CCN(c2ccc([N+](=O)[O-])cc2)CC1	15%
CN1c2ccccc2C(O)=C(C(=S)Nc2ccc(F)c(Cl)c2)S1(=O)=O	-20%
O=S(=O)(Nc1cc(Cl)ccn1)c1ccc(Cl)cc1	8%
CC(=O)c1ccc(NC(=O)C2CCN(S(=O)(=O)c3ccc4c(c3)N(C(C)=O)CCO4)CC2)cc1	8%
O=C(Nc1ccc(N2CCCCC2)cc1)c1ccc(F)cc1F	-6%
OC(CN1C2=NCCN2c2ccccc21)c1ccccc1 (stereo not given)	-15%
O=C(NOCc1ccccc1)c1ccc(Cl)cc1	3%
CCCC[C@@H]1CCCO[C@@](C(=O)NCCOC)(C(F)(F)F)C1	-9%
CC(NCC(=O)Nc1cc(S(=O)(=O)N2CCOCC2)ccc1Cl)c1ccc(Cl)cc1Cl (stereo not given)	1%
O=C(C[C@H]1C(=O)N(CCc2ccccc2)C[C@@H]1Cc1ccccc1)Nc1ccccc1	3%
CCc1ccc(NC(=S)N2CCCC(C(F)(F)F)C2)cc1 (stereo not given)	18%
O=C(c1ccc2c(c1)N(Cc1ccc(Cl)cc1)C(=O)c1ccccc1S2(=O)=O)N1CCCCCC1	-4%
C(#CC1CCCC1)c1ccc2c(c1)COc1c3ccccc3nn1-2	-5%
CCOc1ccc(NC(=O)C2CCCN(S(=O)(=O)c3cccc4nonc34)C2)cc1 (stereo not given)	-9%
c1ccc(C(Cc2nc(-c3ccncc3)no2)c2ccccc2)cc1	-10%
O=C(CN1CC(=O)Oc2ccccc21)NCc1ccco1	-4%
C/C(CC(=O)Nc1ccc(C)c(Cl)c1)=N\NC(=O)Cc1ccccc1	-10%
CCOc1cc(/C=C\[N+](=O)[O-])ccc1OCC(=O)N1CCOCC1	28µM*
Cc1ccc(C)c(NC(=O)c2cc(-c3cc(C)ccc3O)n[nH]2)c1	-8%
Ic1ccc(N2CCN(Cc3c[nH]c4ncccc34)CC2)cc1	?
COc1ccc(C(=O)OCC(=O)NCCN2C(=O)CSC2=O)cc1[N+](=O)[O-]	5%
CC(C)c1ccc(-c2noc(SCC(=O)N3CCN(c4ccc(F)cc4)CC3)n2)cc1	0%
Cc1nnc(OCC(=O)NCCC2=CCCCC2)c2ccccc12	-11%
O=C(Nc1ccc(C(=O)NCCCN2CCN(c3ccccc3)CC2)cc1)C1=CSCCO1	-10%
O=C(c1cc2nc(-c3ccco3)cc(C(F)(F)F)n2n1)N1CCN(c2ccc(F)cc2)CC1	0%
Cc1ccc(C(C#N)c2ccc3c(C(F)(F)F)cc(C(F)(F)F)nc3n2)cc1 (stereo not given)	-5%
CC1(C)Cc2c(sc3c2c(N)nc(=S)n3Cc2ccc(Br)cc2)CO1	9%
CCn1c(Oc2ccccc2F)nc2c1c(=O)n(C)c(=O)n2C	-10%
CC(=O)c1ccc(N2CCN(c3ccc(S(=O)(=O)NCCN(C)C)cc3[N+](=O)[O-])CC2)cc1	10%
CCc1ccc(CNC(=O)C2CCCN(c3nc4ccccc4o3)C2)cc1 (stereo not given)	1%
O=C(O)Cc1coc2cc3c(cc12)CCC3	-4%
CCc1sc(Nc2cccc(Cl)c2)nc1-c1cc2cccc(OC)c2oc1=O	9%
CC(C)(C)OC(=O)N1CCC[C@H]1C(=O)O	-3%&-6%
Cc1ccc(/C=N/NC(=O)c2nnn(-c3nonc3N)c2-c2ccccc2)o1	-22%
CN(C)S(=O)(=O)c1ccc(C(=O)NCc2ccccn2)cc1	5%
CCN(CC)S(=O)(=O)c1cc(C(=O)OCC(=O)c2ccc3c(c2)NC(=O)CO3)ccc1F	4%
CSc1cccc(NC(=O)C2CCN(S(=O)(=O)c3ccc4c(c3)CCCN4C(=O)C3CCC3)CC2)c1	9%
COc1ccc(C(=O)NCCS(=O)(=O)NCc2ccc3c(c2)OCO3)cc1	0%
COc1ccc(-c2nc3ccccc3o2)cc1NC(=O)c1cc(Br)ccc1OC	10%
Cn1c(N)c(C(=O)CSc2n[nH]c(-c3ccccc3)n2)c(=O)n(C)c1=O	-13%
CCOC(=O)Nc1cc2c(cc1C(C)=O)OCO2	-2%
CCOC(=O)c1cccc(N2C(=O)c3ccccc3S2(=O)=O)c1	7%
O=C(COC(=O)c1ccc(Cl)c([N+](=O)[O-])c1)Nc1ccccc1OC(F)F	-10%
N#Cc1ccccc1OCCN1C(=O)c2ccccc2C1=O	0%
O=C(NNC(=O)c1ccc(SCC2CCCO2)c([N+](=O)[O-])c1)c1ccc(Cl)c([N+](=O)[O-])c1 (stereo not given)	-20%
C=CCSc1nc(NC)c2sccc2n1	-6%
O=C(CCl)Nc1ncc(S(=O)(=O)c2ccc([N+](=O)[O-])cc2)s1	-5%
COc1cc(C(=O)Oc2cc(N)n(S(=O)(=O)c3ccccc3)n2)cc(OC)c1OC	11%
COc1ccc(N(C(=O)c2ccncc2)S(=O)(=O)c2cccs2)cc1	-22%
CN(C)c1ccc(-c2nc(-c3ccccn3)no2)cc1[N+](=O)[O-]	9%
Next section:
SMILES	VDR inhibitor
CCOC(=O)c1ccccc1NS(=O)(=O)c1ccccc1F	12%
CCn1c(SCC(=O)Nc2nc(C)c(C)s2)nnc1-c1ccco1	-2%
CC(=O)C1=C(O)C(=O)N(c2ccc(O)cc2)C1c1ccc([N+](=O)[O-])cc1 (stereo not given)	-8%
Cc1ccc(OCCOC(=O)c2cc(S(=O)(=O)N3CCCCC3)ccc2N2CCOCC2)cc1	-3%
O=Nc1c(O)n(Cc2ccc(Cl)cc2Cl)c2ccccc12	5%
COc1ccc(CNC(=O)CSc2nc(-c3ccc(OC)c(OC)c3)cc(C(F)(F)F)n2)cc1	13%

Screening results deposited in PubChem BioAssay by National Center for Advancing Translational Sciences (NCATS).

These rows are one share of the data; rates above refer to the full screens.
